Menin-MLL FL inh: displaces fluorescein MLL peptide from human menin. Fluorescence polarization, fluorescein-MLL peptide displacement from menin. FP activity change, % at 61.4 µM. 290,000 tested, under 10 active; inconclusive = falling polarisation curve, or a change in total fluorescence; inactive = total fluorescence flat and polarisation flat or rising; no compound was filed as active; the % refers to the polarisation; negative = inhibition;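 further: % of control where 0% means no effect; inhibitors lower the polarisation; unlabelled MLL peptide was the positive control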
TRPML1 blocker: human mucolipin-1 channel inhibition; Q9GZU1; TRPML1-inducible cells, Ca2+ dye fluorescence, FDSS; stronger effect = lower value; inhibition of EC80 agonist-evoked calcium signal; activity change, negative = inhibition, % (concentration not given with the values); 390,000 tested, 0.02% active; in the data active means activity change below about -50%; inconclusive means about -30% to -50%; inactive means above about -30%;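 further: stimulus is agonist 54-4 at its EC80 concentration; on the % scale 0 is the no-effect control and ±100 the full control effect; compound concentration not given in the record; the text of the record puts the active cut at -80%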
Target sequence (Q9GZU1 whole entry, looked up): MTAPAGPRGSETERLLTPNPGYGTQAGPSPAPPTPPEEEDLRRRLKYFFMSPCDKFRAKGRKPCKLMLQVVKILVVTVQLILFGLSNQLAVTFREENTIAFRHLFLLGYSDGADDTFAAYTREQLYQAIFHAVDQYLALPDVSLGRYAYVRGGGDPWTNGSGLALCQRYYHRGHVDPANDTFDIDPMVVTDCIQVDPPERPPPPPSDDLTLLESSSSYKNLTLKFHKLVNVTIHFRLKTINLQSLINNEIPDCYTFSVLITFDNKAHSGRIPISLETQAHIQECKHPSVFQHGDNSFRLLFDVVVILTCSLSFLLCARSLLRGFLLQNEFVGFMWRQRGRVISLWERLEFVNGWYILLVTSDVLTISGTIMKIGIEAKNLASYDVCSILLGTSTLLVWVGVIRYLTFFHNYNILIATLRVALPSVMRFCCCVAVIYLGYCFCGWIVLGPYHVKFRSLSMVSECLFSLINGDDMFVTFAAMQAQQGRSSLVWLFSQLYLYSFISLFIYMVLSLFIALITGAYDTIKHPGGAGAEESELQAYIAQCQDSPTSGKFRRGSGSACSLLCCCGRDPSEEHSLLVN
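Calcium fluorescence in TRPML1-DL cells induced overnight with Tet: a 110 s read after compound pin addition, then a 110 s antagonist read after challenge with 54-4 at 4 uM final (EC80).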
gsp antag: gsp mutant antagonism; gsp-mutant cells, cAMP HTRF, 30 min; control for the full effect not named in the record; Potency, µM (doses to about 76.9 µM), for inactives: at the highest dose activity change, negative = inhibition, most hits filed as inhibitors; 340,000 tested, 0.4% active; active = falling curve of any shape with a large fitted effect; inconclusive = falling curve, mostly with a smaller effect; inactive = flat or rising curve; cell line not stated here;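 further: intracellular cAMP measured with PDE inhibitor Ro 20-1724 present during compound exposure; potency means the concentration at half of the fitted maximal effect; on the % scale 0 is the no-effect control and ±100 the full control effect; nearly all actives have a fitted effect of over 65% in size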
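G418-selected cells were plated in DMEM/10% FBS for 16-24 h at 37C, then treated with compounds plus the PDE inhibitor […] (300 uM solution added) for 30 min at 37C. Intracellular cAMP was measured by HTRF after 30 min lysis at room temperature.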
gsp agonist: agonists of gsp mutant (McCune-Albright syndrome); 340,000 tested, 0.13% active; gsp mutant cells, cAMP HTRF, 30 min; control for the full effect not named in the record; Potency, µM (top dose mostly 76.9 µM), without a hit: top-dose activation (cAMP increase), usual class: activators; AID 624287; active = well fitted activation curve with a large enough effect; inconclusive = small, poorly fitted or top-dose-only effect, or another doubt; inactive = no such curve, though single readings can be large or run the other way; cell line not stated here;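 further: phosphodiesterase inhibitor Ro 20-1724 added with compounds to block cAMP breakdown; potency means the concentration at half of the fitted maximal effect; nearly all actives have a fitted effect of over 60% in size; about a fifth of the inactives were tested at one dose only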
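Cells in DMEM/10% FBS with G418 were pretreated with compounds in DMSO plus […] (300 uM stock) for 30 min at 37C. cAMP was measured by HTRF (cAMP-d2 plus anti-cAMP antibody-K) after 30 min at room temperature.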
TRPML1 ag: activates the human TRPML1 channel; AID 624414; 410,000 tested, 0.12% active; activation, % (concentration not given with the values); TRPML1-expressing cells, Ca2+ dye fluorescence, FDSS; host cell line not named in the record; reference of the full effect not given here; Q9GZU1; in the data active = activation above about 50%; inconclusive = about 30% to 50%; inactive = below about 30%; further: 0% is about no effect; the text of the record puts the active cut at 80%
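In this qHTS format, compounds were pin-transferred onto Ca8-dye-loaded TRPML1-DL cells induced with Tet overnight, and intracellular Ca2+ fluorescence was recorded kinetically for 110 s after a 10 s baseline. A subsequent 4uM final 54-4 (EC80) addition followed by a second 110 s read served as the antagonist phase.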
ClpP mod: qHTS Assay for Activators of ClpP. purified B. subtilis ClpP, FRET peptide cleavage, 20 min. Potency, µM (top dose mostly 57.5 µM), without a hit: at the top dose activity change, negative = active. 340,000 tested, 1.9% active. AID 651965, 2013; active = well fitted falling curve with a large enough effect; inconclusive = small, poorly fitted or top-dose-only effect; inactive = no such curve, though single readings can be large or run the other way; further: potency means the concentration at half of the fitted maximal effect; the source files actives as falling curves though it sought activators and does not explain the sign; nearly all actives have a fitted effect of over 65% in size; many hits overshoot -100%
Target sequence (P80244 whole entry, looked up): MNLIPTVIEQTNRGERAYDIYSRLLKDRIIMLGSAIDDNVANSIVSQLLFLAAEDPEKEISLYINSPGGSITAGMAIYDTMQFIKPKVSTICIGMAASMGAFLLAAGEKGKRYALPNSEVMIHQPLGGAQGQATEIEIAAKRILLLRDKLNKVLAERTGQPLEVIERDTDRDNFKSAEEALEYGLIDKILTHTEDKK
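ClpP 10 microg/mL final, pH 8 Tris/KCl buffer with BSA, glycerol, Tween-20; compound pinned in; FRET-FV substrate; RT 20 min; Ex320/Em430; ΔFRET vs ADEP 5.8 microM, DMSO, no enzyme.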
Numbers without * were called inactive; ? = inconclusive; · = not tested or not shown; & = joins results of further samples; [ ] = remark or other dose.

SMILES	Menin-MLL FL inh	TRPML1 blocker	gsp antag	gsp agonist	TRPML1 ag	ClpP mod
CCCSc1nnc(-c2ccccc2NC(=O)CC)c(=O)[nH]1	4.2	16	7%	0%	1.4	-1.5%
CCC(=O)N=c1sc2ccccc2n1-c1ccccc1	3.8	-1	-7%	-8%[15.4 µM]	0.8	·
COC(=O)c1cc2c(N)c(C(=O)c3ccc(Cl)cc3)sc2nc1C(OC)OC	?	-3	-14%	-2%[15.4 µM]	2.4	·
CC1(C)CC(NC(=O)COc2ccc([N+](=O)[O-])cc2)CC(C)(C)N1	0.4	21	-2%	-5%	-0.4	·
O=[N+]([O-])c1ccc(SCc2ccncc2)nc1	-2.2	-3	2%	1%	4.6	0.8%
Cc1cc(C)c(NC(=O)Cn2nnc(C(=O)NCc3ccc4c(c3)OCO4)c2N)c(C)c1	8.2	23	-6%	19%	0.6	-1.5%
O=C(Nc1ccc(Cl)c(C(F)(F)F)c1)C1CCCN(S(=O)(=O)c2cnc[nH]2)C1 (stereo not drawn)	4.9	3	-18%	29%	-0.9	-0.3%
CCOc1ccccc1OCCCOc1ccc([N+](=O)[O-])cc1Cl	0.0	7	-5%	?	0.7	-1.0%
CCC(=O)N1CCc2cc(Br)cc(S(=O)(=O)N3CCN(c4ccccc4OC)CC3)c21	·	13	·	·	-0.6	0.9%
CCCOC(=O)c1ccc(Oc2c(-c3ccc(OC)cc3O)n[nH]c2C)cc1	2.3	63	-5%	?	1.2	0.8%
COc1ccccc1CN(C)c1ccc(S(=O)(=O)N2CCN(C)CC2)cn1	·	3	14%	3%	-0.8	-6.1%
CCOC(=O)C1=C(C)NC(=S)NC1c1ccc(C)s1 (stereo not drawn)	1.5	-1	4%	?	-0.9	·
COc1ccc(NC(=O)c2cc(-c3ccco3)nc3ccccc23)cc1S(=O)(=O)N1CCOCC1	21	·	-21%	?	·	-23%
COc1cc(OC)c2c(c1C(CCN1CCOCC1)c1ccc(N(C)C)cc1)OC(=O)CC2c1ccc(N(C)C)cc1 (stereo not drawn)	1.0&2.7	-16&3	3%	·	0.7&-0.1	-6.5%
CN(Cc1ccccc1)C(=O)CCS(=O)(=O)c1cc(Br)cc2c1N(C(=O)C1CC1)CC2	·	12	·	·	-0.1	-4.6%
Cc1ccc(CSc2nc3ccccc3cc2C=O)cc1	-1.1	-2	12%[15.4 µM]	8%	1.2	-2.3%
CCc1nc(SCc2ccccc2C)n[nH]1	-9.2	-4	11%	-6%	-0.9	-1.0%
CC(C)Cc1ccc(S(=O)(=O)N2CCN(Cc3noc(CCC(=O)N4CCCCC4)n3)CC2)cc1	·	-8	·	·	-0.2	1.2%
Cc1nn2cc(-c3ccc(-c4ccccc4)cc3)nc2s1	2.7	12	4%	-1%	-0.1	-6.6%
COC(=O)c1cc2c(cc1NC(=O)c1c(C)nn(-c3ccc(C)cc3)c1-n1cccc1)OCO2	·	24	·	·	0.0	-5.7%
CN1C(=O)/C(=N\OC(=O)c2ccccc2Cl)c2ccccc21	3.2	-20	4%	20%	0.3	1.0%
COc1ccc(CNC(=S)NCc2ccc(OC(C)C)cc2)cc1	9.6	11	1%	10%[15.4 µM]	0.3	·
Cc1ccc(NC(=O)/C=C/c2cccc([N+](=O)[O-])c2)nc1	-0.9	1	-2%	1%[15.4 µM]	-0.3	·
Cc1nc(-c2ccc(C(=O)Nc3cccc(F)c3)cc2)cs1	-6.0	3	-3%	-46%[inhibitor]	-0.1	·
CC(C)c1nnc(NC(=O)CCC(=O)Nc2ccc3cn[nH]c3c2)s1	-1.6	-2	5%	-6%[15.4 µM]	-0.1	·
COc1ccc(S(=O)(=O)N(C)c2ccccc2)c2cccnc12	-1.1	-1	-4%	?	-1.0	1.9%
CC(CN1CCNCC1)(NS(=O)(=O)c1ccccc1)c1ccccc1 (stereo not drawn)	1.7	9	-6%	1%	0.5	-0.6%
Cc1ccc(C(c2sc3ncnn3c2O)N2CCCCC2)cc1 (stereo not drawn)	-0.8	-3	-4%	22%	0.2	-1.5%
COc1cccc(NC(=O)CN(C)CC(=O)NCc2ccc3c(c2)OCO3)c1	·	5	4%	-5%	-0.9	1.1%
Cn1cc(C=C2C(=O)OC3(CCCCC3)OC2=O)c2ccccc21	6.2	-1	6%	6%[15.4 µM]	0.1	-3.8%
CC(Oc1ccccc1)C(=O)N1CCN(c2ncccn2)CC1 (stereo not drawn)	·	-8	-7%	-5%	-0.1	-19%
Cc1ccc(-c2nn(-c3ccccc3)cc2CN(Cc2ccccc2)C(=O)CCC(=O)O)o1	1.1	8	?	-42%[inhibitor]	-0.7	22µM*
COc1ccccc1NC(=O)CN1CCN(c2ccccn2)CC1	2.9	-1	-13%	-2%	-0.5	-3.1%
COc1cccc(C(=O)CN2C3=NCCCN3c3ccccc32)c1	-0.7	3	12%	-2%	1.1	-1.5%
CCOC(=O)Cc1c(C)nc2c(C#N)c(C)nn2c1C	0.9	-8	0%	?	0.4	?
COc1ccc(CCNC(=O)C(C)n2nc(C)n3c(cc4occc43)c2=O)cc1OC (stereo not drawn)	·	15	-7%	-70%[inhibitor]	-0.6	-7.2%
CCCCCn1c(CNC(C)=O)nc2ccccc21	-2.6	-13	7%	-23%	4.4	-3.9%
CN(c1ccccc1C(=O)O)S(=O)(=O)c1ccc2[nH]c(=O)oc2c1	·	-12	·	·	1.5	-0.2%
COc1cc(CCN(C(C)=O)C2C(=O)Nc3ccccc3N=C2c2ccc3c(c2)OCO3)cc(OC)c1 (stereo not drawn)	·	-5	·	·	-0.7	-1.8%
COc1ccc(N2CCN(C(=O)COC(=O)CCOc3ccccc3C)CC2)cc1	·	0	3%	40%[15.4 µM]	3.0	·
CCN(CC)CCNc1nc2ccccc2n1C	1.5	12	17%	-5%	-0.7	0.7%
CC(C)C1C(=O)N(Cc2cn(CCC3OCCO3)nn2)CCS(=O)(=O)N1Cc1ccc(-c2ccc(F)nc2)cc1 (stereo not drawn)	·	5	·	-17%	0.2	0.7%
CN1CCN(c2ccc(-c3nc(-c4ccccc4)no3)cc2[N+](=O)[O-])CC1	·	24	·	·	-0.1	-2.5%
CC(C)CCN(C(=S)Nc1cccc(F)c1)C(C)c1cccs1 (stereo not drawn)	0.7	-3	-4%	10%	0.2	1.6%
COc1ccc(C(=O)Nc2nnc(SCC(=O)NC3CCCC3)s2)c(OC)c1	-0.1	33	6%	-14%	-0.3	-0.5%
Oc1c(Cl)cc(Cl)c(Cl)c1CN1CCOCC1	·	-2	-3%	6%	-0.8	·
COc1ccc(C2C(C#N)C(C#N)N3CCCN23)cc1 (stereo not drawn)	-3.7	-15	3%	?	-0.1	32µM*
O=C(COC(=O)c1ccc(Cl)nc1)NCCNC(=O)COC(=O)c1ccc(Cl)nc1	·	0	-7%	?	-0.7	-0.6%
CC1=C(C(N)=O)C(c2ccncc2)n2nc(-c3ccccc3Cl)nc2N1 (stereo not drawn)	2.6	10	5%	-316%[inhibitor]	0.1	-1.2%
CCOC(=O)c1c(Cc2ccc(Cl)cc2)c[nH]c1C	3.5	15	-13%	3%	0.7	·
COc1ccc2nc(N3CCN(C(=O)C4CC4)CC3)sc2c1	·	-2	·	·	1.4	1.9%
Cc1ccc(C)c(C(=O)Nc2nc3ccccc3[nH]2)c1	-2.5	11	18%	-7%[15.4 µM]	0.3	·
Cc1ccccc1C(=O)N1CCC(C(=O)Nc2ccccc2N2CCCC2)CC1	·	29	-15%	1%[15.4 µM]	-0.3	·
CCC1CCCCN1CCCNC(=O)c1ccc2c(c1)NC(=O)CS2 (stereo not drawn)	-7.8	32	6%	-26%	0.8	-0.4%
CC(C)(C)N1C(=O)Cc2c1nc(N)c1c(N)nc(N3CCCCC3CO)c(C#N)c21 (stereo not drawn)	3.1	4	15%	3%[15.4 µM]	0.6	-2.4%
CC1CCN(S(=O)(=O)c2ccc(C(=O)Nc3ccccn3)cc2)CC1	·	13	-5%	15%[15.4 µM]	-0.8	·
O=C(Nc1ccc(F)cc1)NC1CCN(Cc2c(F)cccc2Cl)CC1	6.2	-7	3%	1%[15.4 µM]	1.4	·
Cc1cc(-c2ccco2)n2c(nc3ccccc32)c1C#N	?	11	-10%	7%	0.2	1.7%
CC[C@@]1(C(=O)OC)N[C@H](CN(C)C(=O)Nc2ccc(OC)cc2)[C@@H]2C(=O)N(Cc3ccccc3)C(=O)[C@@H]21	·	-8	6%	·	-0.4	0.1%
O=C(CCSCCc1ccccn1)Nc1cccc([N+](=O)[O-])c1	-2.4	5	-11%	-3%[15.4 µM]	-0.2	·
Continuation:
SMILES	Menin-MLL FL inh	TRPML1 blocker	gsp antag	gsp agonist	TRPML1 ag	ClpP mod
CCOc1ccc(NC(=S)N2CCC(c3nc4ccccc4[nH]3)CC2)cc1	0.1	9	8%	-22%	4.0	-0.7%
Fc1ccc(Cn2cccc2C2=NC(c3ccccc3)CO2)cc1 (stereo not drawn)	1.9	21	0%	13%	2.0	20µM*
CC1(C(=O)NCc2ccccc2Br)CCN1Cc1ccccc1OC(F)F (stereo not drawn)	·	69	·	·	16	-2.6%
Cc1nc2nc(SCC(=O)NCc3ccccc3Cl)nn2c(C)c1Cc1ccccc1	·	-12	·	·	0.6	-5.4%
C=CCn1cnc2c(nnn2Cc2ccc(F)cc2)c1=O	1.9	-10	3%	-2%	-0.8	0.6%
C/C(=N\NC(=O)CC1N=C(Cc2ccccc2)NNC1=O)c1ccc(C)cc1 (stereo not drawn)	5.0	15	9%	21%	1.3	-1.2%
CCOC(=O)CC(c1ccc(N)cc1)n1c(C)ccc1C (stereo not drawn)	-0.2	28	0%	0%	-0.1	·
Cc1nc2ccccc2c2oc(C(=O)NCCN3CCCCC3C)cc12 (stereo not drawn)	0.7	8	-13%	3%	-0.5	4.3%
COc1ccc(/C=C(/NC(=O)c2ccc([N+](=O)[O-])cc2)C(=O)NCCCN(C)C)cc1	-9.4	-4	1%	16%[15.4 µM]	0.0	-2.9%
O=C(O)C1CC=C(Cl)CC1C(=O)NC1CCCCC1 (stereo not drawn)	·	-3	2%	1%	0.0	0.6%

Assay outcomes from PubChem.
